# TRPV1 potentiator: human TRPV1 potentiation; Q8NER1; TRPV1-expressing cells, Fluo-8 calcium influx, capsaicin EC20 potentiation; host cell line not named in the record; control for the full effect not named in the record; potentiation, % at 8.33 µM; actives 0.02% (n = 320,000); active means potentiation above 80%; inconclusive means 30% to 80%; inactive means below 30%; also: 0% is about no effect
# Target sequence (Q8NER1 whole entry, looked up): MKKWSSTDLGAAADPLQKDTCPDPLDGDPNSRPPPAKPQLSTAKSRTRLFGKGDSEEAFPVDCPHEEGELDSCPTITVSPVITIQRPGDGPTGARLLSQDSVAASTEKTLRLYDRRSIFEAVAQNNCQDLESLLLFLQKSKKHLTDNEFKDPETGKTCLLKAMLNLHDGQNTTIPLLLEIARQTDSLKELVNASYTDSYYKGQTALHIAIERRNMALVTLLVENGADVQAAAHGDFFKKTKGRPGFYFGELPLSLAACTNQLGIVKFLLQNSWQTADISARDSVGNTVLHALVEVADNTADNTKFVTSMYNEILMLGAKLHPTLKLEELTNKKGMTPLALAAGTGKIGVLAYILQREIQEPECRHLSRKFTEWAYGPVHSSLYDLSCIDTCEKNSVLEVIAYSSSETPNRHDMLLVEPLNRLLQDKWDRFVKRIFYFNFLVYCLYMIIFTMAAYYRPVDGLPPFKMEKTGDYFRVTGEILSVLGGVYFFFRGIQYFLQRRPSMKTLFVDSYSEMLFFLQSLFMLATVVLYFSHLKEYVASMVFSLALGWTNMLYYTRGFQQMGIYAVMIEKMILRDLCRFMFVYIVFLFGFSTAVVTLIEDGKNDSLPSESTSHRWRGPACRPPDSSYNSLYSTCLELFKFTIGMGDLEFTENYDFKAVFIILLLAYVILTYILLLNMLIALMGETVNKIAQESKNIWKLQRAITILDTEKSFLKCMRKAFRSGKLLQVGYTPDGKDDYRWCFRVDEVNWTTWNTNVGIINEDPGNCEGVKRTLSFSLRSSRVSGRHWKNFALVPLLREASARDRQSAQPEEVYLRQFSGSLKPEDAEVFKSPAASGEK
#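 Cells expressing TRPV1 were dye-loaded with Fluo-8 and read kinetically: 10 s baseline, 3 min after compound (agonist portion), then 2 min after EC20 capsaicin (allosteric enhancer portion). Calcium-bound dye fluorescence at 480/520 nm.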
# CtBP-E1A blk: CtBP/E1A binding inhibition | actives 0.49% (n = 340,000) | activity change, % (no concentration beside the values) | AID 651724 | AlphaScreen GST-E1A/His-CtBP binding, 1536-well; stronger effect = lower value; control for the full effect not named in the record; in the data active means activity change below about -65%; inconclusive means about -30% to -65%; inactive means above about -30%; also: % is scaled to controls: 0 for no effect and ±100 for the full control effect; compound concentration not given in the record
#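 In 5 uL wells, 23 nL compound meets equimolar GST-E1A and His-CtBP (5X stock 125 nM each) for 2 h, 37 °C. Beads (5X, 50 ug/mL) then 1 h, 37 °C, dark.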
# TRPML1 ag: human mucolipin-1 channel agonism | TRPML1-expressing cells, Ca2+ dye fluorescence, FDSS; host cell line not named in the record; reference of the full effect not given here | activation, % (concentration not given with the values) | actives 0.12% (n = 410,000) | AID 624414; in the data active = activation above about 50%; inconclusive = about 30% to 50%; inactive = below about 30%; also: 0% is about no effect; the text of the record puts the active cut at 80%
#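 In this qHTS format, compounds were pin-transferred onto Ca8-dye-loaded TRPML1-DL cells induced with Tet overnight, and intracellular Ca2+ fluorescence was recorded kinetically for 110 s after a 10 s baseline. A subsequent 4uM final 54-4 (EC80) addition followed by a second 110 s read served as the antagonist phase.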
# D2 potentiator: human D2 receptor positive allosteric modulation | P14416 | DiscoveRx D2 beta-arrestin cells, luminescence, 90 min; 100% = 57 uM dopamine signal | potentiation, % (test concentration not listed) | AID 624464 | actives 0.23% (n = 360,000); active = potentiation of 50% or more; inconclusive = 30% to 50%; inactive = 30% or less;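 also: compound concentration not given in the record; tested on top of an EC20 dose of dopamine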
#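 PathHunter beta-arrestin assay in DiscoveRx D2 cells. Compounds were added with an EC20 of dopamine (50 nM final) for 90 min at 37 deg C. Luminescence was read 1 h after detection reagent, with 57 uM dopamine as the EC100 control.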
# Six1-Eya2 inh: Six1/Eya2 interaction inhibition | Q15475+O00167 | AlphaScreen GST-Six1/His-Eya2 binding, biochemical; stronger effect = lower value; control for the full effect not named in the record | activity change, % (no concentration beside the values) | actives 0.56% (n = 360,000) | AID 651725; in the data active = activity change below about -65%; inconclusive = about -30% to -65%; inactive = above about -30%; also: % is scaled to controls: 0 for no effect and ±100 for the full control effect; compound concentration not given in the record
#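 AlphaScreen luminescence read after one hour at 37 °C in darkness. Pin-transferred compounds met GST-Six1 and His-Eya2 protein (5X stock 250 nM/500 nM) plus glutathione donor and Ni-chelate acceptor beads (5X, 50 ug/mL).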
# TRPML1 blocker: inhibitors of human TRPML1 channel. Q9GZU1. TRPML1-inducible cells, Ca2+ dye fluorescence, FDSS; stronger effect = lower value; inhibition of EC80 agonist-evoked calcium signal. activity change, negative = inhibition, % (concentration not given with the values). actives 0.02% (n = 390,000). AID 624415; in the data active means activity change below about -50%; inconclusive means about -30% to -50%; inactive means above about -30%;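 also: stimulus is agonist 54-4 at its EC80 concentration; % is scaled to controls: 0 for no effect and ±100 for the full control effect; compound concentration not given in the record; the text of the record puts the active cut at -80%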
#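 Calcium fluorescence in TRPML1-DL cells induced overnight with Tet: a 110 s read after compound pin addition, then a 110 s antagonist read after challenge with 54-4 at 4 uM final (EC80).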
# Active calls of the source: *; ? = inconclusive; . = no result given; & = joins results of further samples.
# Start of the listing, in advance (three entries):
# Each structure is followed by: TRPML1 blocker, TRPV1 potentiator, Six1-Eya2 inh, CtBP-E1A blk, D2 potentiator, TRPML1 ag
Cc1cc(NCCNC2=CC(=O)CCC2)nc2ccccc12
 : 1, 0, -4, 2, -4, -0.7
CCn1c(SCC(=O)N2CCN(c3ccc(F)cc3)CC2)nc2ccccc2c1=O
 : -8, 2, 11, -3, -9, 0.3
COC(=O)c1cc(S(=O)(=O)n2nc(C)c(Br)c2C)c(Cl)cc1Cl
 : 49, 20, 3, 14, 54*, 1.4

# The listing (from the top)
# Each structure is followed by: TRPML1 blocker, TRPV1 potentiator, Six1-Eya2 inh, CtBP-E1A blk, D2 potentiator, TRPML1 ag
Cc1cc(NCCNC2=CC(=O)CCC2)nc2ccccc12
 : 1, 0, -4, 2, -4, -0.7
CCn1c(SCC(=O)N2CCN(c3ccc(F)cc3)CC2)nc2ccccc2c1=O
 : -8, 2, 11, -3, -9, 0.3
COC(=O)c1cc(S(=O)(=O)n2nc(C)c(Br)c2C)c(Cl)cc1Cl
 : 49, 20, 3, 14, 54*, 1.4
O=C(Cn1c(=O)n(CCc2c[nH]c3ccccc23)c(=O)c2cccnc21)Nc1ccccc1F
 : -4, 12, -6, -4, -3, -1.1
CCC(C)NC(=O)c1cc(Cl)c(NC(=O)C2=C(C)OCCS2)cc1OC (stereo unspecified)
 : 42, -28, -6, -14, -8, 1.6
Cc1cc(C(=O)NNc2ccccc2F)no1
 : -14, 17, 8, 9, -4, -0.1
CCC1(OC(=O)CN(C)C)C(=O)OCc2c1cc1n(c2=O)Cc2cc3c(N)cccc3nc2-1 (stereo unspecified)
 : -14, ., -16, 5, -3, 0.4
O=C(COc1ccc(Cl)cc1)Nc1ccc(C(=O)NCc2cccnc2)cc1
 : -5, -13, -2, -2, 1, 0.0
O=C(NCCCn1ccnc1)C(=O)NCC1OCCN1S(=O)(=O)c1ccc(F)cc1 (stereo unspecified)
 : 3, 3, -77*, -73*, 1, 0.1
CC(=O)Nc1cccc(N/C=C(\C=O)c2nc3ccccc3o2)c1
 : -6, 1, -11, -23, 22, 0.3
O=C(NCc1ccco1)C1c2ccccc2Oc2ccccc21
 : 6, 3, 9, 0, -23, 1.0
Cn1c(=N)n(CC(O)c2cccc3ccccc23)c2ccccc21 (stereo unspecified)
 : 31, ., -7, -1, -12, 0.8
CSc1nnc(C)c(=O)n1COC(=O)COc1ccccc1C
 : 16, 5, 4, 2, -8, 1.2
CC(=O)N[C@@H](Cc1c[nH]c2ccccc12)C(=O)NCc1ccccc1
 : 1, -4, -4, -4, 0, 0.0
COc1ccc(/C=N/Nc2ccc(C(=O)O)cc2)c(OC)c1OC
 : 24, -3, 0, -8, -6, 0.6
CCCCNC(=O)c1onc(CS(=O)(=O)c2ccccn2)c1C(=O)NCCCC
 : 10, -19, -1, ., -6, 0.7
CCNC(=S)Nc1cc(C)ccn1
 : 16, ?, 16, -1, -9, -0.3
COc1ccc(C2c3[nH]c4ccccc4c3CCN2C(=O)c2cc3ncccn3n2)c(F)c1 (stereo unspecified)
 : 0, 1, 16, 32, -26, 1.7
CCCCNC(=O)C[C@@H]1C[C@@]2(C(=O)OCC)CCC=C2N(Cc2cccc3ccccc23)C1=O
 : ., ., -8, 2, ., -0.3
Cc1c(C(=O)Oc2ccc(Cl)cc2)n(C)oc1=O
 : -14, 8, 13, 9, -1, -0.4
COc1ccccc1N1CCN(C(=O)CCC(=O)N2CCN(c3ccc(F)cc3)CC2)CC1
 : 4, 1, 0, 0, -2, -0.4
Cc1ccc(CNC(=O)CCc2cn(C)c3ccccc23)cc1
 : 0&10, -13, 1, -1, -15, -1.2&0.9
COC(=O)c1ccc(NS(=O)(=O)c2cccc3cccnc23)cc1
 : 0, -8, -1, 9, 20, 0.0
Cc1cc(S(=O)(=O)N2CCCCC2)ccc1OCC(=O)N1CCOCC1
 : -15, -33, 24, -1, -9, 0.1
COc1cccc(CN2CCN(Cc3c(C)nn(C(C)C)c3C)CC2CCO)c1 (stereo unspecified)
 : -8, 8, 13, ., -2, -0.8
Cc1ccc(Nc2nc3ccccc3s2)cc1
 : -5, 27, 6, 9, -13, 0.6
COc1cc2[nH]c(=S)nc(NCCc3ccc(C)cc3)c2cc1OC
 : 12, -12, ?, -87*, -4, 2.2
CN(Cc1ccccc1)C(=O)COC(=O)c1cc(Cl)nc(Cl)c1
 : 18, 3, 9, 2, -2, 1.5
Cc1ccc(-c2noc(CCC(=O)NCCc3ccccc3Cl)n2)cc1
 : 10, 0, 1, 8, -3, 3.5
Cc1cc(=O)[nH]c(NN)n1
 : ., -3, 2, -21, -11, .

# Complete entries from above. Screens in order: TRPML1 blocker, TRPV1 potentiator, Six1-Eya2 inh, CtBP-E1A blk, D2 potentiator, TRPML1 ag
# Cc1cc(=O)[nH]c(NN)n1 is listed with ., -3, 2, -21, -11, .
# COc1cc2[nH]c(=S)nc(NCCc3ccc(C)cc3)c2cc1OC is listed with 12, -12, ?, -87*, -4, 2.2

# New compounds follow
# Each structure is followed by: TRPML1 blocker, TRPV1 potentiator, Six1-Eya2 inh, CtBP-E1A blk, D2 potentiator, TRPML1 ag
CCCCCc1nc(-c2nonc2N)no1
 : -13, 1, -3, -6, -2, -1.2
CC(Cc1cccnc1)NC(=O)CCc1nnc(-c2ccccc2)o1 (stereo unspecified)
 : 0, 2, 4, -2, -8, -0.2
CCn1c(C)nc2cc(C(=O)NNC(=S)Nc3ccc(C)cc3)ccc21
 : 3, 0, 4, -4, -12, -0.3
CC(Sc1nncs1)C(=O)Nc1ccc2c(c1)OCO2 (stereo unspecified)
 : 11, -5, 15, 0, -9, 1.2
Cc1cc2nc(C)n(CCCNC(=O)Nc3ccccc3)c2cc1C
 : 30, 5, 1, -4, -10, 0.0
C=CCNC(=O)C1CC(=O)N(c2ccc(OCC(=O)Nc3c(C)cccc3C)cc2)C1 (stereo unspecified)
 : -2, -21, 1, -5, 0, -0.7
COc1cc(C(=O)Oc2ccc(C(=S)N3CCOCC3)cc2)cc(OC)c1OC
 : 24, 10, -1, 10, 2, 0.5
CCn1c(SCC(N)=O)nnc1-c1ccc2[nH]c(C)c(C)c2c1
 : 11, 2, 6, -4, -10, 0.6
Cc1cc(NC(=O)COC(=O)C2CSC3(C)CCC(=O)N23)ccc1Br (stereo unspecified)
 : -8, ., -1, 3, 6, -0.6
CCOc1ccc2nc(N3CCCN(C(=O)Nc4ccccc4C)CC3)c(C#N)cc2c1
 : -14, -6, 41, 7, 10, 4.8
Nc1nc2ncc(CNc3ccc(C(=O)N[C@@H](CCC(=O)O)C(=O)O)cc3)nc2c(=O)[nH]1
 : ., -2, ?, ?, -9, .
OCCNCC(O)Cn1ccc2ccccc21 (stereo unspecified)
 : 27, 2, -1, -3, -21, -0.8
O=C(CCCOc1ccc(Cl)cc1Cl)n1nnc2ccccc21
 : 7, -2, 0, 3, 5, -0.6
CCCCNc1ncnc2c1cnn2-c1ccc(C)cc1C
 : 5, -18, -7, -3, 5, -0.9
COc1ccccc1NS(=O)(=O)c1cccc(C(=O)NNC(=O)c2ccc(O)c(Cl)c2)c1
 : 14, 7, -13, -3, -21, -0.1
O=S(=O)(NC(=NC1CCCCC1)c1ccccc1)c1ccc(F)cc1
 : -12, -16, 1, 14, -13, 1.4
O=C(c1cc(F)ccc1F)C1CCCN(C(=O)CCCN2CCCCC2=O)C1 (stereo unspecified)
 : -15, 22, 1, ., 1, -1.1
CN(C)S(=O)(=O)c1cccc(NC(=S)N/N=C/C(c2ccccc2)c2ccccc2)c1
 : -5, -8, -8, -3, -22, -1.9
Cc1ccc2nc(CSc3nnc(Cc4cccs4)n3C3CCCCC3)cc(=O)n2c1
 : 14, 0, 4, 6, -8, 2.3
O=C(O)CC(NC(=O)CCC1CCCCC1)c1cc([N+](=O)[O-])ccc1Cl (stereo unspecified)
 : -15, ?, 6, 3, 0, -0.2
Cc1cc(OCC(=O)OCC(=O)N2CCc3ccccc32)ccc1Cl
 : 6, 8, 5, ., 3, 1.0
COc1cc(OC)cc(C(=O)Nc2cccc(NC(=O)c3ccccc3)c2)c1
 : 0, 6, -2, -3, -4, 2.4
O=C(Cc1cccs1)N1CCN(S(=O)(=O)c2ccc(F)c(F)c2)CC1
 : 12, -1, -1, 3, -1, -0.2
Cc1csc(SCC(=O)Nc2sc3c(c2C#N)CCC3)n1
 : 1, 5, -12, 2, -10, 1.3
Cc1ccccc1NS(=O)(=O)c1ccc(C(=O)NN2CCCCC2)cc1
 : -12, -2, 8, 2, -13, 0.2
Cc1nnc2n1N=CC=C(c1ccccc1)S2
 : 5, -15, 5, -2, -18, 0.1
COc1ccc(-c2nn(-c3ccccc3)cc2/C=C2/SC(=S)N(CCC(=O)O)C2=O)cc1
 : 22, -5, -16, -8, -3, 0.9
COC(=O)CC1C(=O)NCCN1C(=O)c1oc2c(C)c(C)ccc2c1C (stereo unspecified)
 : 3, ., -14, -3, -13, -0.5
Cc1cccc(C)c1NC(=O)C(c1ccccc1)N1CCN(c2ccc(F)cc2)CC1 (stereo unspecified)
 : ., ., 0, 5, -3, 0.2
O=C(CSc1nncs1)Nc1ccc2c(c1)OCO2
 : 14, -3, 4, ., -42, 2.2
O=[N+]([O-])c1ccc(Cl)cc1NCCCN1CCOCC1
 : -1, 0, -11, ., -19, 0.4
CC(=O)N1CCc2cc(S(=O)(=O)Nc3ccc(C)cc3)ccc21
 : -10, 0, -3, 5, -4, -1.0
CC1CC(C)CN(C(=O)C(C)N2CCN(S(=O)(=O)c3ccccc3F)CC2)C1 (stereo unspecified)
 : -5, ., 6, 2, -1, -0.1
CCC1=C(OC(=O)N(CC)CC)N2C(=O)OC(=NCCc3c[nH]c4ccccc34)[C@]2(Cc2ccccc2)[C@H]2C1=CC[C@H]1C(=O)N(c3ccccc3)C(=O)[C@H]12
 : 12, -32, -9, ., -32, 0.0
CCOC(=O)Nc1ccc2c(c1)N(C(=O)CCN1CCN(CCO)CC1)c1ccccc1S2
 : -4, ., -3, -5, -22, -0.6
CC(C)(C)c1ccc(C(=O)CSc2ncn[nH]2)cc1
 : -26, 7, -6, -3, 7, -0.2
O=C(Nc1ccc(F)cc1)N1CCCC(c2nc3c(nnn3Cc3ccccc3Cl)c(=O)[nH]2)C1 (stereo unspecified)
 : 25, 8, 0, ., -3, -1.2
COc1ccc(N2CCN(C(=O)COCC(=O)O)CC2)cc1
 : 15, -8, 4, 13, -3, -0.3
Cn1c(=O)c2c(nc(SCCN3CCCCC3)n2Cc2ccc(Cl)cc2)n(C)c1=O
 : 20, 7, -10, -12, -29, 1.5
Cc1ccc(NC(=O)Cn2cc(C(=O)C3CC3)c3ccccc32)cc1
 : -8&5, 3, 11, -3, -7, 0.8&-1.0
O=C(c1cccc(C(F)(F)F)c1)C1CCCN(C(=O)CCn2cnnn2)C1 (stereo unspecified)
 : -4, -42, 6, 8, -6, 0.0
O=C(CN1C(=O)CCS(=O)(=O)c2ccccc21)Nc1cccc(Cl)c1
 : 45, 9, 3, 9, -10, -0.2
COc1cc(C2C(=O)c3ccccc3C2=O)ccc1O
 : -11, -1, 11, ., 1, 0.6
O=C(O)c1cc2c(ccc3ccccc32)[nH]1
 : -3, 1, 1, -3, -6, -0.6
CC1=C(C#N)C(=O)NC(=O)/C1=C\c1ccc(-c2cc(C)c(C)cc2[N+](=O)[O-])o1
 : 4, 7, -16, -2, -3, -1.1

# Screening results: PubChem BioAssay, National Center for Advancing Translational Sciences (NCATS)
